Mtb growth – Mycobacterium tuberculosis H37Rv growth inhibition, cell based, confirmatory dose response (AID 1949). actives 1.6% (n = 100,000). inhibition, % at 10 µg/mL, or IC50 in µg/mL where a hit was titrated. most inactive calls were filed without a number and no value below 0 was filed;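 active = confirmed in a dose series; inconclusive = about 50% or more but not retested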;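 also: bacteria grown 7 days with compound before Alamar blue readout; 0% = untreated bacteria and 100% = reference antibiotic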
Starred values were filed as active, the others as inactive; i = inactive; u = inconclusive. Some of the compounds tested (hit frequency here may not be typical).

SMILES | Mtb growth
COc1ccc(CC(=O)NCC2OCCc3ccccc32)cc1OC (stereo unspecified) | i
COC(=O)c1cn(-c2ccccc2)nc1-c1ccc(Cl)cc1 | 1%
CC1=C(C(=O)Nc2ccc(C)cc2)C(c2ccc(N(C)C)cc2)NC(=O)N1 (stereo unspecified) | i
COc1ccc(N(CC(=O)Nc2cccc(Br)c2)S(C)(=O)=O)cc1 | 6%
O=C(O)COc1c(Cl)cc(CO)cc1Br | i
COc1cc(C(NC(C)=O)NC(C)=O)ccc1OCc1ccccc1 | i
CCOc1ccccc1NC(=O)c1csc(C)c1C | 32%
CS(=O)(=O)N(CC(=O)Nc1ccc(I)cc1)c1cc(Cl)cc(Cl)c1 | i
COc1ccc(NC(=S)Nc2ccc(Br)cc2)cc1 | i
COCc1cccc(NS(=O)(=O)Cc2ccccc2)c1 | i
CCCC12CN(C(=O)c3ccc(C)cc3)CC(CCC)(CN(C(=O)c3ccc(C)cc3)C1)C2=O | i
CN1CCN(C2CC(=O)N(c3ccc(N4CCCCC4)cc3)C2=O)CC1 (stereo unspecified) | i
O=C(NCc1ccc(Cl)cc1Cl)c1cccs1 | i
COCCCNC(=S)NNC(=O)c1ccccc1I | i
CCOc1ccccc1NC(=S)NC(=O)C1CCCCC1 | u
CC(C)(C)c1ccc(S(=O)(=O)NCC(=O)N2CCCC2)cc1 | i
CCc1cccc(OCC(=O)NCC2CCCO2)c1 (stereo unspecified) | i
CCn1c2ccccc2n2c(SCCC(=O)O)nnc12 | i
CCN1CCN(S(=O)(=O)c2ccc(Cl)c(Cl)c2OC)CC1 | 1%
COc1cccc(NC(=O)NCCc2ccc(C)cc2)c1 | 6%
COc1ccc(/C=C(\C#N)S(=O)(=O)c2ccccc2)cc1OCCN1CCOCC1 | i
O=C(c1ccco1)N1CCN(c2cccc(Cl)c2)CC1 | i
COc1ccccc1-c1noc(-c2ccccc2F)n1 | 1%
O=C(NCC1CCCO1)C1CCNCC1 (stereo unspecified) | i
COc1ccc(Cl)cc1C(=O)Nc1ccc(Cl)c(C(F)(F)F)c1 | i
COc1ccc([N+](=O)[O-])cc1NC(=S)NC(=O)c1ccc(C)cc1C | i
COc1ccccc1NC(=O)c1cc(OC)c(OC)cc1OC | i
CCOC(=O)CCNCc1ccc(OC)c(OC)c1 | i
CCOC(=O)Cc1nnc(NC(=O)CSc2nnc3c4ccccc4n(C)c3n2)s1 | i
Cc1cc(Br)ccc1NC(=O)COc1ccc(C(C)(C)C)cc1 | 1%
CCOC(=O)C1CCN(C(=O)CN2C(=O)c3cccc4cccc2c34)CC1 | i
C=CCn1c(Cc2ccccc2)nc2ccccc21 | 2%
CCOc1ccccc1NC(=O)CS | 1%
COc1ccccc1C1C(C(N)=O)=C(C)Nc2nc(SCc3ccccc3F)nn21 (stereo unspecified) | i
CCOc1ccccc1C(=O)NCc1ccc2c(c1)OCO2 | i
CN(Cc1ccccc1)S(=O)(=O)c1ccc(NC(=O)c2cccc([N+](=O)[O-])c2)cc1 | i
O=S(=O)(Nc1cccc(Br)c1)c1ccc2c(c1)OCCO2 | 2%
Cc1ccc(N2CCN(S(=O)(=O)c3ccc(C(C)C)cc3)CC2)cc1C | 1%
CCOc1ccc(N2CCn3c2nc2c3c(=O)n(CCN3CCCCC3)c(=O)n2C)cc1 | i
COc1cccc(N2CCN(C(=O)NC3CCCCC3)CC2)c1 | i
COc1ccccc1C(=O)Nc1ccc(OCC(=O)N2CCOCC2)cc1 | i
CCOc1cccc(CNc2ccc3[nH]c(=O)[nH]c3c2)c1OCc1ccc(Cl)cc1Cl | 0%
COc1ccc(N2C(=O)CC(NC3CCCC3)C2=O)cc1 (stereo unspecified) | i
COc1cc(NC(=O)CSc2ccccc2)c(C(=O)O)cc1OC | i
COc1ccc(C(=O)NCC(=O)Nc2ccc(C)c(Cl)c2)cc1 | i
CC(C)(C)NS(=O)(=O)c1ccc(NC(=O)CSc2ccccc2)cc1 | i
CCCCOc1ccc(-c2ccc(C)cc2)cc1C(=O)O | 8%
O=C(CCN1CCOCC1)NNC(=O)Nc1cccc(C(F)(F)F)c1 | 1%
Cc1cc(C)nc(NC(=O)c2ccc3c(c2)OCO3)c1 | 1%
CCSc1nnc(Cc2ccccc2)o1 | u
O=C(c1cc(-c2cccs2)nc2ccccc12)N1CCN(c2cccc(C(F)(F)F)c2)CC1 | 8%
COc1cc(N2CCCC2)c(OC)cc1C=O | i
CC(=O)Nc1ccc(S(=O)(=O)Nc2ccc3c4c(cccc24)CC3)cc1 | i
CCOC(=O)CCS(=O)(=O)c1nc(-c2ccccc2)cc(C(F)(F)F)n1 | u
CSc1ccc(C(=S)N2CCN(C(c3ccccc3)c3ccccc3)CC2)cc1 | 1%
O=C(c1ccccc1NS(=O)(=O)c1ccc(Br)cc1)N1CCOCC1 | i
NC(=O)c1c(NC(=O)c2cc3ccccc3oc2=O)sc2c1CCCCCC2 | 1µg/mL*
O=C(Nc1ccccc1N1CCOCC1)c1cc(Br)ccc1Cl | i
N#Cc1cn(CCOc2ccc(F)cc2)c2ccccc12 | i
O=C(COc1ccc(Cl)cc1)Nc1nc(-c2ccc([N+](=O)[O-])cc2)cs1 | i

(list continues)
SMILES | Mtb growth
CCn1c(CNC(C)=O)nnc1SCC(=O)c1ccc(Br)cc1 | i
N#CCCN(Cc1ccccc1)C(=S)NC(=O)c1ccccc1 | 2.5µg/mL*
NC(=O)CSc1nc2ccccc2n1CC(=O)N1CCCCC1 | i
C=CCc1cc(OC)ccc1OCCN1CCN(C)CC1 | i
C=CCn1c(SCc2ccc(Cl)cc2Cl)nc2sc(C)cc2c1=O | 13%
COc1cc(Br)c(/C=C2/C(=O)N(c3ccc(C(=O)O)cc3)N=C2C)cc1OC | 2%
COC(=O)c1ccccc1NC(=O)CN(C1CCCCC1)S(=O)(=O)c1ccc(Cl)cc1 | 13%
N#Cc1nc(-c2ccccc2)oc1NCc1ccccc1 | i
CC(C)Oc1ccc(NC(=O)CCCOc2ccc(Cl)cc2Cl)cc1 | i
COc1cc(Cl)c(CNCCc2ccccc2)cc1OC | i
Cc1c(Cc2ccccc2)sc(NC(=O)COc2ccc(C(C)(C)C)cc2)c1C(N)=O | i
COC(=O)CCC(=O)Nc1cc(Cl)ccc1C | i
O=C(Nc1ccc2oc(-c3ccncc3)nc2c1)c1cccs1 | i
CCOc1ccc(C(NC(C)=O)c2ccc(OC)c(OC)c2)cc1 (stereo unspecified) | i
CCc1ccc(CNC(=O)C2CCCCC2C(=O)O)cc1 (stereo unspecified) | i
Cc1cc(Cl)ccc1NC(=O)CN(Cc1ccccc1)S(C)(=O)=O | i
Cc1cccc(OCCCC(=O)NCc2ccco2)c1C | i
Fc1ccc(NC(=S)Nc2cnn(Cc3ccc(Br)cc3)c2)c(F)c1 | i
Cc1cc(C)cc(C(=O)NC(=S)Nc2nccs2)c1 | i
O=C(CCCOc1ccc(Cl)cc1Cl)NNC(=S)NCC1CCCO1 (stereo unspecified) | i
O=C(Cn1cc(C(=O)C2CC2)c2ccccc21)NCCc1ccccc1 | i
CC(C)c1ccc(CNC(=O)C(=O)Nc2ccccc2)cc1 | 47%
CC(C)CC(=O)Nc1ncc2c(n1)CC(C)(C)CC2=O | i
S=C(NC1CCCCC1)N1CCN(Cc2ccco2)CC1 | 2%
Cc1cc(OCC(=O)NN2C(=O)c3ccccc3C2=O)ccc1Cl | i
Cc1ccccc1C(=O)Nc1cccc(NC(=S)NC(=O)c2cc(Cl)ccc2Cl)c1 | 10%
COc1cccc(Cn2cc(NC(=S)NC3CCCCC3)cn2)c1 | i
CC(=O)Oc1cccc(C(=O)Nc2cc(Cl)c(O)c(Cl)c2)c1 | i
CCc1ccc(NC(=O)CSc2nnc(-c3cc(Cl)ccc3O)n2C)cc1 | i
CC1=C(C(=O)Nc2ccccc2F)C(c2ccco2)C(C#N)=C(SCC(=O)NCc2ccccc2)N1 (stereo unspecified) | 3%

(cont.)
SMILES	Mtb growth
COc1ccc(NC(=O)c2ccc(COc3ccccc3Cl)o2)cc1OC	0%
CCN(CC)c1ccc(NC(=O)c2ccc(OC)c(Br)c2)c(C)c1	0%
CC12C(=O)N(Cc3ccco3)C(=O)C1C1c3ccccc3C2c2ccccc21 (stereo unspecified)	i
CCn1c(SCC(=O)c2ccc(Cl)cc2)nnc1-c1cc(OC)c(OC)c(OC)c1	2%
COc1cccc(NC(=O)CN(c2ccccc2F)S(C)(=O)=O)c1	i
CCOc1cc(C2NC(=S)NC(C)=C2C(C)=O)cc(Br)c1OC (stereo unspecified)	i
CCC(C)c1ccccc1OCCN1CCCC1 (stereo unspecified)	i
O=S(=O)(Cc1ccc(Cl)cc1)N1CCN(c2ccccc2)CC1	2%
COc1ccc(-c2csc(NC(=S)NC(=O)c3ccccc3[N+](=O)[O-])n2)cc1OC	i
O=C(Nc1ccc(Oc2ccc(NC(=O)C3CCCO3)cc2)cc1)C1CCCO1 (stereo unspecified)	i
CCN(CC)C(=O)c1sc(NC(=S)NCCn2cc(Br)cn2)c(C(=O)OC)c1C	0%
COCCCNC(=O)CN(C1CCCCC1)S(=O)(=O)c1ccc(Br)cc1	i
COc1ccccc1C(NC(=O)C1CCCCC1)c1ccc2ccccc2c1O (stereo unspecified)	i
O=C(CSc1nc2[nH]ncc2c(=O)n1-c1ccccc1)c1ccc2c(c1)OCCO2	i
COc1ccc(NC(=O)CSC2CC(=O)N(c3ccc(I)cc3)C2=O)cc1 (stereo unspecified)	i
Cc1ccnc(SCC(=O)c2ccc(Br)cc2)n1	u
N#Cc1cn(CCCOc2ccccc2Cl)c2ccccc12	5%
Cc1cc(OC(C)C)c2c(C)c(Cc3ccccc3)c(=O)oc2c1	18%
CCOC(=O)CSc1nc2ccc(Br)cc2c(=O)n1Cc1ccccc1	i
N#Cc1cc2c(=O)n3ccccc3nc2n(Cc2ccco2)c1=NC(=O)c1ccco1	i

Fetched by compound from above:
SMILES	Mtb growth
COCCCNC(=O)CN(C1CCCCC1)S(=O)(=O)c1ccc(Br)cc1	i
COc1cccc(NC(=O)CN(c2ccccc2F)S(C)(=O)=O)c1	i

Two entries from above, field by field:
N#Cc1cc2c(=O)n3ccccc3nc2n(Cc2ccco2)c1=NC(=O)c1ccco1
  Mtb growth: i
COc1ccc(NC(=O)c2ccc(COc3ccccc3Cl)o2)cc1OC
  Mtb growth: 0%

(cont.)
SMILES	Mtb growth
COC(=O)c1c(NC(=S)Nc2c(C)n(C)n(-c3ccccc3)c2=O)sc2c1CCC2	i
CCn1c(CCc2ccccc2)nnc1SCC(=O)Nc1cc(C(F)(F)F)ccc1Cl	i
CCOc1c(Br)cc(C2CC(=O)Nc3cc(OC)c(OC)cc32)cc1OC (stereo unspecified)	i
Cc1ccc(C(=O)Nc2ccc(Cl)c(Br)c2)cc1	i
CCOc1ccc(CNCc2ccccc2Cl)cc1	i
Cc1cccc(C)c1NC(=O)C1CCN(C(=O)c2ccc(-c3ccccc3)cc2)CC1	i
Cc1nnc(SCCOc2ccccc2)[nH]c1=O	i
CCc1ccc(NC(=O)CSc2nc3cc(Cl)ccc3s2)cc1	i
CCOC(=O)c1c(NC(=O)c2ncn[nH]2)sc2c1CCCC2	i
CN1CCN(S(=O)(=O)c2cccc(S(=O)(=O)c3ccc(Cl)cc3)c2)CC1	i
O=C(Oc1cccc2cccnc12)c1ccc(S(=O)(=O)N2CCCCC2)cc1	1.5µg/mL*
O=C(O)c1cccc(S(=O)(=O)Nc2ccc(O)c(Cl)c2)c1	i
CN(C)CCOCCOc1cc(Cl)ccc1Cl	i
CN(Cc1ccccc1)C(=O)c1cc(-c2ccccc2)on1	i
NS(=O)(=O)c1ccc(CNC(=S)NC2CCCC2)cc1	i
COC(=O)c1c(NC(=S)Nc2ccc(Br)cn2)sc2c1CCC2	i
CC(=O)N1N=C(c2ccc(F)cc2)CC1c1ccc(N(C)C)cc1 (stereo unspecified)	i
COc1ccc(OC)c(N(CC(=O)Nc2c(C)cccc2C(C)C)S(=O)(=O)c2ccccc2)c1	i
Cc1nnc(SCC(=O)Nc2ccccc2)o1	i
COC(=O)c1cc(OC)c(OC)cc1NC(=O)c1ccc(C)cc1	i

Reformatted as labelled records: part of the list above
Cc1cc(OCC(=O)NN2C(=O)c3ccccc3C2=O)ccc1Cl
  Mtb growth: i
O=C(Oc1cccc2cccnc12)c1ccc(S(=O)(=O)N2CCCCC2)cc1
  Mtb growth: 1.5µg/mL*
Cc1ccnc(SCC(=O)c2ccc(Br)cc2)n1
  Mtb growth: u
Cc1c(Cc2ccccc2)sc(NC(=O)COc2ccc(C(C)(C)C)cc2)c1C(N)=O
  Mtb growth: i

New compounds follow:
SMILES	Mtb growth
COC(=O)c1c(N)n(-c2cccc(F)c2)c2nc3ccccc3nc12	i
COc1ccc(NC(=O)CN2CCN(S(=O)(=O)c3ccccc3)CC2)cc1	i
COc1ccc2c(=O)c(Oc3cccc(C)c3)coc2c1	i
O=C(O)CC(Cc1ccccc1)C(=O)Nc1ccc([N+](=O)[O-])cc1 (stereo unspecified)	i
O=C1CC(Sc2ncccn2)C(=O)N1c1ccccc1C(F)(F)F (stereo unspecified)	i
CC(C)NC(=O)c1ccc(COCC(F)(F)F)cc1	i
CCC(C(=O)Nc1ccccc1C(=O)OC)c1ccccc1 (stereo unspecified)	5%
O=C(Nc1nnc(Cc2ccc(Cl)cc2)s1)c1sc2ccccc2c1Cl	i
Cc1ccc(C)c(OCC(=O)NCc2ccco2)c1C	5%
O=C(Nc1cnccn1)Nc1ccc(Br)cc1Cl	0%
O=C(c1ccccc1)c1ccc(N2CCN(C(=S)NC3CC3)CC2)cc1	i
NC1=NC(=O)C(CC(=O)Nc2cccc(C(F)(F)F)c2)S1 (stereo unspecified)	i
Cc1cc2oc(C(=O)Nc3nnc(CC(C)C)s3)c(C)c2cc1C	i

Assay outcomes (PubChem BioAssay)
